gsp antag: antagonists of gsp mutant (McCune-Albright syndrome); 340,000 tested, 0.4% active; gsp-mutant cells, cAMP HTRF, 30 min; control for the full effect not named in the record; Potency, µM (highest dose often 76.9 µM), without a hit: top-dose activity change, negative = inhibition, hits mostly inhibitors; active = falling curve of any shape with a large fitted effect; inconclusive = falling curve, mostly with a smaller effect; inactive = flat or rising curve; cell line not stated here;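 also: intracellular cAMP measured with PDE inhibitor Ro 20-1724 present during compound exposure; potency is read from the fitted curve at half-maximal effect; % is scaled to controls: 0 for no effect and ±100 for the full control effect; nearly all actives have a fitted effect of over 65% in size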
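HTRF cAMP read-out (cAMP-d2 plus anti-cAMP antibody-K in lysis buffer, 30 min RT). Before lysis, cells are exposed to compounds with […] for 30 min at 37C in DPBS containing Ca/Mg, BSA and Tween 20.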
Sfp inh: inhibitors of Bacillus subtilis Sfp phosphopantetheinyl transferase. Q9F4F7. Biochemical Sfp PPTase activity, qHTS. Potency, µM, inactives show max response, negative = inhibition, usual class: inhibitors. 310,000 tested, 3.5% active. AID 1490; active = well fitted inhibition curve with a large enough effect; inconclusive = small, poorly fitted or top-dose-only effect, or another doubt; inactive = no such curve, though single readings can be large or run the other way;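 also: the enzyme is Sfp with the accession as filed and its product quenches rhodamine fluorescence; potency is read from the fitted curve at half-maximal effect; 0% = enzyme reaction without inhibitor and -100% = no enzyme wells; top concentration of the series not given in the record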
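After 15 min at room temperature with compound, 15 nM Sfp received 5 uM rhodamine-CoA plus 12.5 uM BHQ-2-ybbR (50 mM Hepes pH 7.6, 10 mM MgCl2). Rate came from the fluorescence difference over 30 min, ex 525/em 598 nm.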
D2 ag: human D2 receptor agonism in beta-arrestin assay. DiscoveRx PathHunter D2 beta-arrestin, luminescence, 90 min; 100% = 57 uM dopamine signal. activation, % (test concentration not listed). 360,000 tested, 0.084% active; in the data active = activation above about 40%; inconclusive = about 15% to 40%; inactive = below about 15%; also: compound concentration not given in the record; the text of the record calls up to 30% inactive
Target sequence (P14416 whole entry, looked up): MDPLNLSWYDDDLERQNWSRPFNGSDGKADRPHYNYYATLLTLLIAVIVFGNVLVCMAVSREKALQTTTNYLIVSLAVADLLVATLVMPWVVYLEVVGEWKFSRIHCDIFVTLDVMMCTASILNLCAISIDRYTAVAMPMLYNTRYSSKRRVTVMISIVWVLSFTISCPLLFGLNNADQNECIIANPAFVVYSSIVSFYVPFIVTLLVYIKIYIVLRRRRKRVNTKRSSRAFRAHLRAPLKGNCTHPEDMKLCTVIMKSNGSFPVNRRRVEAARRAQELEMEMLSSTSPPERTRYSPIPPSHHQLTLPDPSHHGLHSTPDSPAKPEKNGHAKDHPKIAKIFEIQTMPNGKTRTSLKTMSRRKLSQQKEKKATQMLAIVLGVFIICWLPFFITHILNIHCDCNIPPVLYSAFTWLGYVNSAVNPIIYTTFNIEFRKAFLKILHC
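Agonist mode: compounds alone added to overnight-plated D2 PathHunter cells for 90 min at 37 C, with 57 uM final dopamine (EC100) defining full response. Beta-arrestin recruitment detected by chemiluminescent reagent, read after 1 h at ambient temperature.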
ClpP mod: qHTS Assay for Activators of ClpP | AID 651965, 2013 | Potency, µM (top dose mostly 57.5 µM), without a hit: at the top dose activity change, negative = active | purified B. subtilis ClpP, FRET peptide cleavage, 20 min | ATP-dependent Clp protease proteolytic subunit (Bacillus subtilis (strain 168)), P80244 | 340,000 tested, 1.9% active; active = well fitted falling curve with a large enough effect; inconclusive = small, poorly fitted or top-dose-only effect; inactive = no such curve, though single readings can be large or run the other way; also: potency is read from the fitted curve at half-maximal effect; the source files actives as falling curves though it sought activators and does not explain the sign; nearly all actives have a fitted effect of over 65% in size; many hits overshoot -100%
Target sequence (P80244 whole entry, looked up): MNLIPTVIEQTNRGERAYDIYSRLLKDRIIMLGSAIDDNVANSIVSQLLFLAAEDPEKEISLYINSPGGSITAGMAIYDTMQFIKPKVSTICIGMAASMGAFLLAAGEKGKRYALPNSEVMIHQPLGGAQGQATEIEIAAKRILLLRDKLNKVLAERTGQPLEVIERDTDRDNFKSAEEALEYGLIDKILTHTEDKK
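FRET quenching reversal measured ClpP activation: 10 microg/mL B. subtilis ClpP at pH 8 with the FRET-FV decapeptide, read at 430 nm after 320 nm excitation. The 20-min minus 0-min signal was scaled between DMSO/no-enzyme wells and ADEP (5.8 microM final).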
Menin-MLL FL inh: inhibitors of human menin-MLL interaction, wild-type MLL peptide; Fluorescence polarization, fluorescein-MLL peptide displacement from menin; FP activity change, % at 61.4 µM; 290,000 tested, under 10 active; inconclusive = falling polarisation curve, or a change in total fluorescence; inactive = total fluorescence flat and polarisation flat or rising; no compound was filed as active; the % refers to the polarisation; negative = inhibition;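 also: % of control where 0% means no effect; inhibitors lower the polarisation; unlabelled MLL peptide was the positive control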
gsp ag: activates gsp, the McCune-Albright syndrome mutation; 340,000 tested, 0.13% active; gsp mutant cells, cAMP HTRF, 30 min; control for the full effect not named in the record; Potency, µM (series often up to 76.9 µM), without a hit: at the highest dose activation (cAMP increase), actives largely listed as activators; active = well fitted activation curve with a large enough effect; inconclusive = small, poorly fitted or top-dose-only effect, or another doubt; inactive = no such curve, though single readings can be large or run the other way; cell line not stated here;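 also: phosphodiesterase inhibitor Ro 20-1724 added with compounds to block cAMP breakdown; potency is read from the fitted curve at half-maximal effect; nearly all actives have a fitted effect of over 60% in size; about a fifth of the inactives were tested at one dose only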
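Cells in DMEM/10% FBS with G418 were pretreated with compounds in DMSO plus […] (300 uM stock) for 30 min at 37C. cAMP was measured by HTRF (cAMP-d2 plus anti-cAMP antibody-K) after 30 min at room temperature.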
PINK1 expr mod: changes PINK1 expression. PINK1 immunofluorescence, high-content cytometry, 24 h. Potency, µM (titrated, usually from 76.6 µM), for inactives: at the highest dose activation (PINK1 increase), actives largely listed as activators. 410,000 tested, 0.2% active. AID 624263; active = well fitted activation curve with a large enough effect; inconclusive = small, poorly fitted or top-dose-only effect; inactive = flat fitted curve, though single readings scatter; cell line not stated here;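 also: potency is read from the fitted curve at half-maximal effect; % of control where 0% means no effect; nearly all actives have a fitted effect of over 65% in size; a mitochondrial uncoupler was the plate control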
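A stable cell line was treated with compounds at 5 concentrations for 24 hours, with CCCP as control. PINK1 levels and mitochondrial localization were measured by immunofluorescence with mitochondrial, cell and nuclear markers after fixation, read by laser-scanning cytometry.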
* = called active by the depositor; ? = inconclusive; · = not tested or not shown; & = joins results of further samples; [ ] = remark or other dose.

Every second line gives: gsp antag | Sfp inh | D2 ag | ClpP mod | Menin-MLL FL inh | gsp ag | PINK1 expr mod
> O=c1[nH]n2c(C(F)(F)F)cc(C3CC3)nc2c1N=Nc1ccccc1
    -1% | -7% | 0.1 | · | -10.0 | 16% | 3.4%
> Cc1ccc(C)c(C(O)c2ncc(-c3ccc(F)cc3)[nH]2)c1 (configuration not stated)
    · | · | -4.5 | -0.3% | · | · | 1.7%
> O=S1(=O)CC(N2CCN(c3ccccn3)CC2)CN1C1CCCCC1 (configuration not stated)
    · | · | -4.6 | -8.1% | · | · | -0.5%
> Cc1cccc(N2C(=O)C3CCCN3C2=S)c1 (configuration not stated)
    10% | -15% | 1.9 | -3.9% | -5.9 | -1% | -2.1%
> CCOC(=O)c1cnc2c(-c3cccc(Br)c3)cnn2c1C
    11% | 2% | 2.7 | -3.7% | 3.3 | ? | -0.5%
> CC(Cn1nnc2ccccc21)C(=O)O (configuration not stated)
    11% | 0% | 0.1 | · | -1.0 | -1% | -1.4%
> C=CCc1cccc(/C=N/c2ncn[nH]2)c1O
    11% | 21% | 4.1 | -2.9% | 2.7 | -5% | -1.2%
> COc1ccc(OCc2nn[nH]n2)cc1
    8% | 7% | -6.5 | -1.9% | 2.3 | 22% | 1.0%
> CCOC(=O)C(C)Oc1ccccc1C1NC(=O)NC(C)=C1C(=O)Nc1ccc(C)c(C)c1 (configuration not stated)
    -4% | -1% | -1.1 | 0.7% | 7.3 | -29% | 2.1%[38.3 µM]
> CCCS(=O)(=O)NC(=O)C1(C)CCN(C(=O)c2c(F)ccc(C)c2F)C1 (configuration not stated)
    · | · | -3.3 | -1.1% | · | · | -0.1%

Exported field by field: part of the list above
SMILES: Cc1cccc(N2C(=O)C3CCCN3C2=S)c1 (configuration not stated)
  gsp antag = 10%	Sfp inh = -15%	D2 ag = 1.9	ClpP mod = -3.9%	Menin-MLL FL inh = -5.9	gsp ag = -1%	PINK1 expr mod = -2.1%
SMILES: CCOC(=O)c1cnc2c(-c3cccc(Br)c3)cnn2c1C
  gsp antag = 11%	Sfp inh = 2%	D2 ag = 2.7	ClpP mod = -3.7%	Menin-MLL FL inh = 3.3	gsp ag = ?	PINK1 expr mod = -0.5%
SMILES: CC(Cn1nnc2ccccc21)C(=O)O (configuration not stated)
  gsp antag = 11%	Sfp inh = 0%	D2 ag = 0.1	ClpP mod = ·	Menin-MLL FL inh = -1.0	gsp ag = -1%	PINK1 expr mod = -1.4%

Continuation:
Every second line gives: gsp antag | Sfp inh | D2 ag | ClpP mod | Menin-MLL FL inh | gsp ag | PINK1 expr mod
> N#CCCN(C(=S)NC(=O)c1ccco1)c1ccccc1F
    -3% | 22µM* | 2.5 | -0.2% | 1.2 | 7%[15.4 µM] | -0.9%
> COc1ccc(-n2c(=S)[nH]c3cc(C(=O)Nc4ccccc4OC)ccc3c2=O)c(OC)c1
    28µM* | 23% | -7.2 | · | -0.9 | 4%[15.4 µM] | 0.5%
> COc1ccc(S(=O)(=O)Nc2ccc3c(c2)C(=O)N([C@H](C)CO)C[C@H](C)[C@@H](CN(C)S(=O)(=O)c2ccccc2)O3)cc1
    -13% | · | -2.1 | 0.0% | · | · | 1.2%
> Cc1cccc(/C=N/n2c(C)nnc2C)c1
    -5% | 11% | 6.4 | -5.9% | 0.7 | -33% | 0.2%
> CCc1cc(=O)[nH]c(SCCc2ccccc2)n1
    2% | 12% | -1.6 | -1.5% | 6.1 | -24% | -0.7%
> Cc1cccc(N=c2oc3cc(O)ccc3cc2C(N)=O)c1
    -6% | 10% | -3.4 | 28µM* | 15 | -82%[inhibitor] | 4.2%
> O=Cc1ccc(Sc2nnc(-c3ccccc3)o2)c([N+](=O)[O-])c1
    11% | -2% | 3.6 | 0.4% | -0.4 | ? | -2.5%[38.3 µM]
> CNC(=O)C1(C)C=CCN1C(=O)c1ccccc1 (configuration not stated)
    5% | 3%&21% | -8.3 | -2.4% | 1.4&-0.8 | -7% | -0.5%
> Nc1nc(-c2ccco2)nn1C(=O)c1cccnc1
    11% | -3% | -2.1 | -1.9% | 1.3 | 4% | -0.6%
> COc1ccccc1CNC(=O)Cn1c(=O)c2cccn2c2cccnc21
    -5% | -10% | -2.8 | -23% | · | ? | -0.7%
> S=c1nc(-c2cccc(Cl)c2)[nH][nH]1
    7% | ? | 9.4 | · | -1.8 | ? | -1.9%
> O=C(CSc1nc2ccc(Nc3nc(N4CCOCC4)nc(N4CCOCC4)n3)cc2s1)NCc1ccco1
    ? | -5% | 0.3 | · | 1.4 | 1% | 12%
> CC(=O)N1N=C(c2ccco2)CC1c1ccc(Cl)o1 (configuration not stated)
    1% | -8% | -3.7 | -4.0% | -1.2 | -65%[inhibitor] | -0.3%
> CC(C)(CC(=O)O)CC(=O)Nc1ccccc1Oc1ccccc1
    -12% | 9% | -0.1 | · | -2.8 | -7% | 0.5%
> CC(C)CCNC(=O)c1ccc2c(SCC(=O)O)c3c(nc2c1)CCCC3
    1% | 0% | -4.1 | -25% | -0.1 | 5%[15.4 µM] | ?
> Cc1cccc(C(=O)OCCN2CCOCC2)c1
    12% | 14% | 0.1 | 2.6% | -0.7 | -8%[15.4 µM] | 3.0%
> Cc1[nH]c2ccccc2c1Cc1n[nH]c(=S)o1
    -10% | 8% | -6.6 | -6.8% | -0.4 | 4% | 2.5%
> O=C1c2ccccc2S(=O)(=O)c2cc(C(=O)N3CCCC3)ccc21
    5% | · | 7.8 | 1.9% | · | 38% | 0.9%
> O=C(Cn1nnc(-c2ccc(N3CCOCC3)cc2)n1)OC1CCCCC1
    4% | 7% | -3.3 | 9.3% | -2.8 | 1% | 4.7%
> COc1ccc(-c2nc3cnc(N4CCOCC4)nc3n(C[C@H]3CCCO3)c2=O)cc1
    · | 2% | · | · | -9.3 | · | 4.5%
> C=CCn1c(O)c(N=Nc2ccccc2[N+](=O)[O-])c2ccccc21
    · | · | -0.8 | 0.1% | · | -10% | 4.8%
> Cc1cccc(N2CCN(c3cccc(C)c3)C2c2cccnc2)c1
    -33% | ? | -2.7 | 0.0% | 1.3 | 25% | 13%
> Cc1ccc(C(=O)OCC(=O)NC2CCCCC2)s1
    6% | 5% | -1.5 | · | -1.4 | -28%[15.4 µM] | 0.6%
> Cc1cc(C)c(S(=O)(=O)Nc2ccccn2)c(C)c1
    -2% | 16% | -5.6 | ? | 0.2 | 13% | -1.4%
> Cc1ccccc1NC(=O)Cc1nnc(SCC(=O)c2ccc(Br)cc2)n1C
    -5% | -13% | -1.8 | -0.4% | 2.4 | -18% | 3.4%[38.3 µM]
> COc1ccc2c(CC(=O)OCC(=O)Nc3cccc(C)c3)coc2c1
    10% | · | -2.6 | -0.7% | · | -55%[inhibitor] | 1.0%
> CCSC1=NN2CCS(=O)(=O)N=C2S1
    · | 6% | -1.8 | · | 1.7 | 9%[15.4 µM] | 0.3%
> COc1ccc(Oc2c(Cl)cnn(-c3ccccc3)c2=O)cc1
    ? | 8% | -0.5 | -3.3% | -3.7 | -2% | -2.7%
> NNS(=O)(=O)c1ccc(Cc2ncc(C(F)(F)F)cc2Cl)s1
    -1% | 3% | -1.7 | 1.6% | 4.0 | 9% | 0.8%
> N#C/C(C(=O)Oc1ccccc1)=C1\C=Cc2ccccc2N1
    -8% | -3% | -0.1 | 0.2% | 2.6 | 13% | 12%
> COCCN1CCN(C(=O)c2cc(COc3cncc(Cl)c3)on2)CC1
    2% | 17% | 3.1 | -4.5% | · | 6% | 0.8%
> CCc1c(C)nc2cc(-c3cccc(Br)c3)[nH]n2c1=O
    ? | 0% | 4.5 | -12% | -6.9 | 25% | 7.5%
> CSc1cccc(NC(=S)N(CCCN2CCCC2)Cc2cccs2)c1
    -10% | 21% | -3.8 | · | -2.1 | 13%[15.4 µM] | 0.8%
> COc1cc(/C=C(\NC(C)=O)C(=O)Nc2ccc(NC(C)=O)cc2)ccc1OC(C)=O
    -19% | 13% | 1.6 | 2.0% | 2.2 | -15%[15.4 µM] | 0.8%
> COc1ccc(S(=O)(=O)NCc2ccc(C(=O)N(C)Cc3ccco3)cc2)cc1
    -21% | 22% | 1.1 | -0.6% | 1.8 | 0% | -4.1%[38.3 µM]
> O=C(COC(=O)Cc1n[nH]c(=O)c2ccccc12)Nc1ccc(Cl)cc1F
    6% | 23% | -3.5 | -1.5% | 0.8 | 2% | -0.7%
> Cc1ccc(C)c(NC(=O)CN(C)C(=O)c2cccc(S(=O)(=O)N3CCN(Cc4ccccc4)CC3)c2)c1
    -14% | 3% | 3.9 | -5.3% | · | -3%[15.4 µM] | 0.7%
> O=C(O)CCC(=O)NC1CCCCC1
    5% | 7% | -0.8 | -1.2% | 2.5 | 4% | 6.8%[38.3 µM]
> O=C(Cc1ccccc1[N+](=O)[O-])NNC(=O)c1cccs1
    6% | · | ? | -0.1% | · | -9% | 3.2%
> Cc1nc(N)nc2c1CCCC2
    11% | 4% | -3.2 | ? | -1.0 | -31%[inhibitor] | -1.0%
> O=C(CSc1nc(-c2ccco2)cc(C(F)(F)F)n1)N1CCCc2ccccc21
    0% | -3% | 0.4 | -0.8% | 0.0 | 18% | 1.1%
> NS(=O)(=O)c1cccc(NC(=O)COC(=O)CC2CC3CCC2C3)c1 (configuration not stated)
    -3% | 18% | -2.0 | · | -6.6 | -5% | 2.3%
> CCOc1cc(NC(=S)NCC2CCCO2)c(OCC)cc1NC(=O)c1cccc(F)c1 (configuration not stated)
    ? | 13% | -4.7 | · | 5.3 | 18%[15.4 µM] | 0.7%

Looked up by structure from above:
Every second line gives: gsp antag | Sfp inh | D2 ag | ClpP mod | Menin-MLL FL inh | gsp ag | PINK1 expr mod
> CCOc1cc(NC(=S)NCC2CCCO2)c(OCC)cc1NC(=O)c1cccc(F)c1 (configuration not stated)
    ? | 13% | -4.7 | · | 5.3 | 18%[15.4 µM] | 0.7%
> O=C(Cc1ccccc1[N+](=O)[O-])NNC(=O)c1cccs1
    6% | · | ? | -0.1% | · | -9% | 3.2%

Bioassay records as filed in PubChem.
